# RE007 growth inh: qHTS Assay for Inhibitors of the HIV-1 protein Vpr; S. pombe RE007 Vpr strain, BacTiter-Glo ATP luminescence, 24 h; control for the full effect not named in the record; AID 651644, 2012; 0.21% of 360,000 active; Potency, µM (highest dose often 92.2 µM), inactives show at the top dose activity change, negative = less growth; active = well fitted falling curve with a large enough effect; inconclusive = small, poorly fitted or top-dose-only effect; inactive = no such curve, though single readings can be large or run the other way;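 further: on the % scale 0 is the no-effect control and ±100 the full control effect; nearly all actives have a fitted effect of over 50% in size; the assay follows cell death caused by Vpr and the record does not say whether a fall means rescue or toxicity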
#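 Fission yeast RE007 carrying one integrated HIV-1 vpr copy, seeded at OD 0.01 in PMG+AL medium with 23 nL pinned compound. Grown 24 h at 30 degrees; viability read by BacTiter-Glo luminescence after 5 min.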
# NS1 inh: qHTS Assay for Inhibitors of Influenza NS1 Protein Function; Potency, µM (top dose mostly 46.1 µM), inactives show top-dose activity, positive = more growth; S. cerevisiae slowed by influenza A NS1, growth recovery by OD600; 0.4% of 270,000 active; active means well fitted rising curve with a large enough effect; inconclusive means small, poorly fitted or top-dose-only effect; inactive means no such curve, though single readings can be large or run the other way; further: nearly all actives have a fitted effect of over 50% in size
#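 OD600 was taken as the measure of yeast growth restored by compound in an NS1-expressing S. cerevisiae strain. Cells had been washed out of glucose medium and diluted 1:100 into galactose -URA medium, pH 6.0.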
# SARS PLP yeast: qHTS of Yeast-based Assay for SARS-CoV PLP; S. cerevisiae expressing SARS-CoV PLpro, growth rescue; control for the full effect not named in the record; Potency, µM (doses to about 32.9 µM), inactives show top-dose activity, positive = growth rescue; 0.19% of 330,000 active; active means well fitted rising curve with a large enough effect; inconclusive means small, poorly fitted or top-dose-only effect; inactive means no such curve, though single readings can be large or run the other way; further: 0% is about no effect; nearly all actives have a fitted effect of over 55% in size; growth read by luminescence after 48 h
# Marburg entry inh: qHTS for inhibitors of binding or entry into cells for Marburg Virus | Marburg virus pseudotyped entry inhibition, cell reporter; control for the full effect not named in the record; about a third of the inactives were read at about 46 µM | Potency, µM (highest dose often 37.8 µM), for inactives: at the highest dose activity change, negative = inhibition, hits mostly inhibitors | 1.8% of 300,000 active | AID 540276, 2011; active = well fitted inhibition curve with a large enough effect; inconclusive = small, poorly fitted or top-dose-only effect, or effect the other way; inactive = flat fitted curve, though single readings scatter; tested in HEK293 cells; about a fifth of its hits are not listed in these tables; further: on the % scale 0 is the no-effect control and ±100 the full control effect; luciferase read-out
# StopGo reporter: High Throughput Screening for Foot and Mouth Disease Virus Antivirals; human cells with a luciferase reporter of 2A StopGo recoding; control for the full effect not named in the record; Potency, µM (highest dose often 57.9 µM), without a hit: at the highest dose signal change, negative = less light; 1.2% of 410,000 active; active = well fitted falling curve with a large enough effect; inconclusive = small, poorly fitted or top-dose-only effect; inactive = no such curve, though single readings can be large or run the other way; tested in HEK293T cells; further: on the % scale 0 is the no-effect control and ±100 the full control effect; nearly all actives have a fitted effect of over 45% in size; luciferase light after 4 h
# Cruzain Triton: qHTS Assay for Promiscuous and Specific Inhibitors of Cruzain (with detergent); Cruzipain (Trypanosoma cruzi), P25779; purified cruzain, Z-FR-AMC fluorescence, 0.01% Triton; Potency, µM, inactives show max response, negative = inhibition, actives largely listed as inhibitors; 0.43% of 200,000 active;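 further: plate controls were neutral wells for no effect and buffer without enzyme for full effect; nearly all actives have a fitted effect of over 40% in size; top concentration of the series not given in the record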
# Target sequence (P25779 123-467 limits assumed): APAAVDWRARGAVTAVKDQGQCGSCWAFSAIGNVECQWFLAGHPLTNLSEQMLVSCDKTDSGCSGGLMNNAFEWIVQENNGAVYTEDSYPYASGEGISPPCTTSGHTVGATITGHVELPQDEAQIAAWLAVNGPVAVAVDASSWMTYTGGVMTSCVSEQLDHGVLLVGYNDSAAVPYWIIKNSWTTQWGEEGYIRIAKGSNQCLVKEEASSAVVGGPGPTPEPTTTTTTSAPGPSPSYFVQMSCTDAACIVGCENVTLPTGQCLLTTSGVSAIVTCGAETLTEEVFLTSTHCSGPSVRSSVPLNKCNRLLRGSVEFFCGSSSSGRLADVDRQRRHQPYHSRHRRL
#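 Steps: dispense cruzain (1.5 nM final) in acetate buffer pH 5.5 with DTT and 0.01% Triton X-100; pin-transfer compounds; incubate 15 min RT; add Z-FR-AMC (2 uM final); read fluorescence every 30 s, using the 60 s intensity change.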
# Cruzain inh noDet: qHTS Assay for Promiscuous and Specific Inhibitors of Cruzain (without detergent). Potency, µM, without a hit: max response, negative = inhibition, hits mostly inhibitors. Cruzipain (Trypanosoma cruzi), P25779. 2.3% of 200,000 active. purified cruzain, Z-FR-AMC fluorescence, no detergent;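 further: plate controls were enzyme without inhibitor for no effect and buffer without enzyme for full effect; nearly all actives have a fitted effect of over 40% in size; top concentration of the series not given in the record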
#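 Purified cruzain at 1.5 nM, pre-incubated 15 min with compound at room temperature in 100 mM sodium acetate pH 5.5, 5 mM DTT, 0.00005% Triton X-100. Reaction started with 2 uM Z-FR-AMC; AMC fluorescence increase over 60 s gives rate.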
# LASV entry inh: qHTS for Inhibitors of binding or entry into cells for Lassa Virus; Lassa virus pseudotype entry inhibition, cell reporter; control for the full effect not named in the record; Potency, µM (series often up to 37.9 µM), inactives show at the highest dose activity change, negative = inhibition, actives largely listed as inhibitors; 1.2% of 300,000 active; AID 540256, 2011; active means well fitted inhibition curve with a large enough effect; inconclusive means small, poorly fitted or top-dose-only effect, or effect the other way; inactive means flat fitted curve, though single readings scatter; tested in HEK293 cells; further: on the % scale 0 is the no-effect control and ±100 the full control effect; nearly all actives have a fitted effect of over 50% in size; luciferase read-out
# Numbers without * were called inactive; ? = inconclusive; nt = not tested or not shown; & = joins results of further samples; [ ] = another dose, or the depositor's remark. Unless noted, the call rests on the fitted dose curve; in most records, active means well fitted curve in the direction sought with a large enough effect; inconclusive means small, poorly fitted or top-dose-only effect, or another doubt; inactive means no such curve, though single readings can be large; an effect the other way counts as inactive or inconclusive. Potency means the concentration at half of the fitted maximal effect. Not a hit list. Share with any hit: about 4.7%.
SMILES,RE007 growth inh,NS1 inh,SARS PLP yeast,Marburg entry inh,StopGo reporter,Cruzain Triton,Cruzain inh noDet,LASV entry inh
COC(=O)c1ccc(CSc2nnc(NC(=O)C3CC(=O)N(c4ccc5c(c4)OCCO5)C3)s2)cc1 (centres undefined),-9%,18%,15%,-21%,?,-5.3%,0%,15%
CS(=O)(=O)c1ccc(Cl)c(NC(=O)COC(=O)CCCN2C(=O)c3cccc4cccc(c34)C2=O)c1,11%,nt,-2%,17%[46.1 µM],-13%,nt,nt,2%
COc1ccc(Cl)cc1C(=O)CSc1nnnn1C1CCCC1,7%,-8%,-1%,-18%,12%,-1.3%,-5%,-2%
CC(Oc1ccccc1)C(=O)N=C1SC2CS(=O)(=O)CC2N1Cc1ccc(F)cc1 (centres undefined),-9%,8%,-3%,nt,-18%,nt,nt,nt
O=C(Nc1cccnc1)c1ccc(-c2ccc(Cl)cc2)o1,3%,nt,-10%,-1%[46.1 µM],7%,nt,nt,5%[46.1 µM]
CC(C(=O)Nc1nncs1)N1C(=O)C2C3C=CC(C3)C2C1=O (centres undefined),-6%,nt,0%,?,5%,nt,nt,25%
CC(C)NC(=O)COc1ncnc2sccc12,-1%,3%,5%,0%,5%,5.6%,8%,-32%[14.3 µM]
COc1cccc(CNCc2cccnc2)c1OCc1ccccc1,-17%,5%,0%,2%[46.1 µM],-1%,nt,nt,13%
CCc1ccnc(NC(=O)Nc2ccc(OCc3ccccc3)cc2)c1,-15%,-3%,-2%,?,1%,nt,nt,0%
O=C(Nc1ccc2c(c1)OCO2)N1CCN(c2ccc(F)cc2)CC1,5%,-4%,0%,?,-12%,nt,nt,17%[46.1 µM]
Cc1ccc(C(=O)Cn2nnc3ccccc32)cc1[N+](=O)[O-],-6%,-2%,0%,nt,48%[activator],nt,nt,nt
CCCCCSc1nc2c(c(=O)[nH]c(=O)n2C)n1C,-6%,-2%,3%,nt,-3%,1.6%,-9%,nt
CCOC(=O)Cc1csc(NC(=O)c2ccc(S(=O)(=O)N(CCOC)CCOC)cc2)n1,10%,nt,-9%,3%,?,nt,nt,-5%
CC(C)Oc1ccc(CC2CC(=O)NC2=O)cc1 (centres undefined),10%,2%,2%,?,-7%,4.0%,-3%,2%
Cc1ccc(-c2nn(-c3ccc(F)cc3F)c3c2cnc2c(F)cccc23)cc1,nt,nt,nt,nt,6%,0.6%,-9%,10%[46.1 µM]
COc1ccc(-c2cc(C(=O)N3CCCCC3)no2)cc1OC,1%,-4%,-1%,?,101%[activator],-2.6%,-2%,1%
Cc1cnc(C(=O)OCc2ccc(Br)cc2F)cn1,17%,-1%,-2%,0%[46.1 µM],-5%,nt,nt,nt
O=S(=O)(Nc1ncnc2sc3c(c12)CCC3)c1ccc2ccccc2c1,-12%,?,-3%,7%,14%,-4.6%,32µM*,3%
Cc1cc(C)cc(NC2=C(c3ccccc3)C(=O)c3ccccc32)c1,nt,nt,nt,6%[46.1 µM],?,-7.6%,-18%,2%[46.1 µM]
O=C(N/N=C/c1ccc([N+](=O)[O-])s1)c1ccncc1,-12%,-22%,-4%,?,-30%,-6.2%,-7%,30%[46.1 µM]
Cn1c(-c2ccccc2)n[nH]c1=S,-14%,1%,0%,-8%,7%,nt,nt,?
CC1CCN(CCCCOc2ccc(Cl)cc2)CC1,10%,-7%,-3%,7.9µM*,-9%,nt,nt,6%[46.1 µM]
CCN(CC)Cc1c(O)ccc2cc(-c3nc4ccccc4n3C)c(=O)oc12,-10%,5%,2%,-7%,3%,nt,nt,19%
CC(C)(C)c1ccc(C(=O)Nc2nnc(C3=COCCO3)o2)cc1,-12%,-7%,-2%,-23%,-18%,nt,nt,2%
Cc1cccc(C)c1NC(=O)COC(=O)c1cccnc1,1%,1%,0%,nt,-3%,nt,nt,nt
Cc1ccc(S(=O)(=O)N2CCN(C(=O)COC(=O)c3cnc(C)cn3)CC2)c(C)c1,-16%,nt,0%,19%,-13%,nt,nt,19%
O=C(c1ccco1)N1CCN(C(=O)C2CC(c3ccc(F)cc3)=NO2)CC1 (centres undefined),0%,9%,-9%,?,-5%,1.9%,5%,2%
O=C(Cn1c(NCCO)nc2ccccc21)N1CCN(Cc2ccccc2)CC1,13%,11%,6%,4%[46.1 µM],-8%,nt,nt,0%
Cc1cccc(C(=O)Nc2nnc(-c3ccco3)o2)c1,-4%,2%,-10%,-21%,39%[activator],2.5%,17%,4%
O=C(NCc1ccc2c(c1)OCO2)C1CCCCC1,1%,1%,3%,-3%,60%[activator],nt,nt,2%
Cc1ccc2c(c1)COc1c3ccc(C(=O)NCCO)cc3nn1-2,-18%,-5%,1%,nt,48%[activator],nt,nt,nt
CCC(CCC(=O)Nc1ccc(S(N)(=O)=O)cc1)C(=O)O (centres undefined),-4%,5%,-1%,1%,nt,-8.8%,2%,11%
Nc1n[nH]c(-c2ccc(F)cc2)n1,23%,5%,-7%,7%,20%,4.1%,3%,16%
COc1ccc(OC)c(S(=O)(=O)N2CCCC(C(=O)NCc3ccncc3)C2)c1 (centres undefined),-12%,5%,1%,6%[46.1 µM],2%,nt,nt,16%
CCOc1ccc(S(=O)(=O)/N=C(\N)c2ccccc2)cc1,3%,-4%,-2%,0%[46.1 µM],-13%,nt,nt,13µM*
CN1C(=O)Cc2cc(S(=O)(=O)CCC(=O)Nc3cccc(C(F)(F)F)c3)ccc21,nt,nt,nt,nt,-7%,1.0%,6%,14%[46.1 µM]
Cc1nnsc1C(=O)Nc1cc(Cl)ccc1Cl,-22%,0%,-26%,9%,-16%,-2.0%,-11%,-21%
CCOC(=O)CN(C(=O)CNC(=O)c1cccs1)C(C(=O)NC1CCCC1)c1ccncc1 (centres undefined),-8%,-3%,0%,nt,5%,nt,nt,nt
CC(=O)c1ccc(NS(=O)(=O)c2cccc(S(=O)(=O)c3ccc(Cl)cc3)c2)cc1,nt,nt,nt,nt,18%,-1.1%,?,2%[46.1 µM]
Cc1nn(S(=O)(=O)c2cccc([N+](=O)[O-])c2)c(C)c1Br,9%,1%,0%,-16%[46.1 µM],-18%,nt,nt,-12%
O=C(Nc1ccncc1)c1ccc2ccccc2c1,-25%,-41%,-5%,-6%,4%,nt,nt,0%
Cc1ccc2nc(Br)c3c(c2c1)OC(CBr)C3 (centres undefined),-3%,-10%,-9%,nt,-12%,nt,nt,nt
CCOc1ccccc1OCC(=O)Nc1ccc(N2CCCCC2)cc1,1%,-15%,-1%,-23%,nt,1.9%,-5%,2%
CCN(CC)CCn1c(/N=C/c2cc(Br)ccc2O)nc2ccccc21,-3%,3%,-3%,1%,6%,-10%,10%,?
COc1ccc(OC)c(NC(=O)CSc2nnc(NC(=O)c3ccco3)s2)c1,4%,-12%,4%,3%,-25%,nt,nt,1%
CCOC(=O)c1c(C)[nH]c(C(=O)COC(=O)/C=C/c2ccc(O)c(OC)c2)c1C,9%,?,6%,?,0%,-2.6%,5%,-10%
COc1cc(/C=C(\C#N)c2nnc(N3CCOCC3)n2-c2ccccc2)ccc1O,2%,12%,8%,nt,5%,-3.0%,10%,nt
O=C(COc1ccccc1Cl)N1CCN(CCc2ccncc2)CC1,nt,nt,nt,13%[46.1 µM],-20%,-2.9%,18%,-11%[46.1 µM]
FC(F)(F)C1CCCN(c2nsc3ccccc23)C1 (centres undefined),8.9µM*,-121%,-15%,1%&1%,-10%,nt,nt,-19%
Cc1ccc(-n2ncc3c(=O)n(Cc4ccccn4)cnc32)cc1C,-2%,2%,4%,1%,23%,2.6%,14%,?
Cc1nc2ccccn2c1C(=O)C(=O)Nc1cc(F)ccc1F,?,-1%,1%,25%[46.1 µM],37%[activator],nt,nt,3%
CC(=O)c1cccc(NC(=S)NNC(=O)c2ccc(C)c([N+](=O)[O-])c2)c1,-5%,-2%,0%,nt,-16%,nt,nt,nt
CC(C)N(CCn1c(SCC(=O)N2CC(=O)Nc3ccccc32)nc2ccccc2c1=O)C(C)C,-6%,nt,3%,?,-15%,nt,nt,11%
CCC1C(=O)N(c2nc(C)cc(C)n2)N=C1C (centres undefined),-12%,1%,1%,0%,7%,1.4%,2%,3%
Cc1ccnc(SCC(=O)Nc2sc3c(c2C#N)CCC(C(C)(C)C)C3)n1 (centres undefined),9%,3%,-2%,-11%,2%,-2.3%,2%,-24%
O=C(Nc1ccc(F)c(F)c1)NC1CCCCC1,13%,-51%,-4%,?,36%[activator],-2.5%,-6%,?
COc1ccc(CCNC(=O)C2=C(C)C(=O)OC23CCCCC3)c(OC)c1OC,nt,nt,nt,-7%[46.1 µM],-3%,1.6%,8%,14%[46.1 µM]
O=C(NCc1ccco1)c1ccc2c(c1)CCO2,-9%,4%,1%,-1%[46.1 µM],23%,nt,nt,13%
O=C(CNC(=O)C1COc2ccccc2O1)Nc1cc(Cl)ccc1Cl (centres undefined),0%,nt,14%,18%,2%,nt,nt,2%
Cc1oc2ncn(C)c(=O)c2c1C(=O)Nc1ccc(F)cc1,nt,nt,nt,4%[46.1 µM],-8%,0.9%,5%,-27%[46.1 µM]
CSc1nc(=O)c2c(n1C)NC(=O)CC2c1ccccc1OC(C)C (centres undefined),nt,nt,nt,0%[46.1 µM],-4%,-1.0%,6%,-1%[46.1 µM]
OC(CNC1Cc2ccccc2C1)c1ccccc1 (centres undefined),-8%,1%,0%,12%,19%,nt,nt,?
COc1ccc(C2CC(c3ccc(Br)cc3)=NN2C(=O)CSC2=NCCS2)cc1 (centres undefined),7%,?,-13%,?,?,-8.5%,?,?
